TRPV1 PAM = HTS Assay for Compounds that Act as Potentiators of the Vanilloid Receptor 1; TRPV1-expressing cells, Fluo-8 calcium influx, capsaicin EC20 potentiation; host cell line not named in the record; control for the full effect not named in the record; hit rate 0.02% among 320,000; potentiation, % at 8.33 µM; active means potentiation above 80%; inconclusive means 30% to 80%; inactive means below 30%; note: 0% is about no effect
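Fluo-8 calcium influx in TRPV1-expressing cells, kinetic read (ex 480/em 520 nm). Compound added and read 3 min for agonist activity, followed by capsaicin at EC20 final and 2 min further read for enhancement.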
Six1-Eya2 inh = qHTS Assay for Inhibitors of the Six1/Eya2 Interaction. Homeobox protein SIX1 (Homo sapiens) + Protein phosphatase EYA2 (Homo sapiens), …. AlphaScreen GST-Six1/His-Eya2 binding, biochemical; active compounds read low; control for the full effect not named in the record. activity change, % (no concentration beside the values). hit rate 0.56% among 360,000. AID 651725, 2012; in the data active = activity change below about -65%; inconclusive = about -30% to -65%; inactive = above about -30%; note: % is set by controls: 0 for no effect and ±100 for the full control effect
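GST-Six1 + His-Eya2 (5X stock: 250/500 nM); Tris pH 8.0, 300 mM NaCl, 0.05% BSA, 0.02% Tween 20; GSH donor/Ni acceptor beads; 1 h 37 °C dark; AlphaScreen readout.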
D2 potentiator = Beta-Arrestin HTS for Positive Allosteric Modulators of the Human D2 Dopamine Receptor: Potentiators | DiscoveRx D2 beta-arrestin cells, luminescence, 90 min; 100% = 57 uM dopamine signal | potentiation, % (no concentration beside the values) | hit rate 0.23% among 360,000; active = potentiation of 50% or more; inconclusive = 30% to 50%; inactive = 30% or less;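 note: compound concentration not given in the record; tested on top of an EC20 dose of dopamine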
Target sequence (P14416 whole entry, looked up): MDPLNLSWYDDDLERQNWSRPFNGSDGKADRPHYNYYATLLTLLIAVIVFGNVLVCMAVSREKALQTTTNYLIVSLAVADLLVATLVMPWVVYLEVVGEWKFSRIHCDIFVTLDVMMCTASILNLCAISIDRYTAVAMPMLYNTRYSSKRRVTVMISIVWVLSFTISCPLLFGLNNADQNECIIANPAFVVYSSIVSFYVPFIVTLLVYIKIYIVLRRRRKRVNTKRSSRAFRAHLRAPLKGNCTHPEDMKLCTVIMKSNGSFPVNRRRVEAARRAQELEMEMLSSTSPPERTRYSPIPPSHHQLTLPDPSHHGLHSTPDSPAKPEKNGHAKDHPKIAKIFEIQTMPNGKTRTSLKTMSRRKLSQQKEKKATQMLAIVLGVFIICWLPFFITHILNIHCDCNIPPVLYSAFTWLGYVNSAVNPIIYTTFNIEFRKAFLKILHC
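D2 cells co-treated with compound plus 50 nM dopamine (EC20) for 90 min at 37 deg C to detect potentiation. Beta-arrestin recruitment was read as enzyme-fragment luminescence after 1 h at ambient temperature. Full response was set by 57 uM dopamine.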
TRPML1 blocker = qHTS for Inhibitors of the Human Mucolipin Transient Receptor Potential 1 (TRPML1) | AID 624415, 2012 | Mucolipin-1 (Homo sapiens), Q9GZU1 | activity change, negative = inhibition, % (test concentration not listed) | hit rate 0.02% among 390,000 | TRPML1-inducible cells, Ca2+ dye fluorescence, FDSS; active compounds read low; inhibition of EC80 agonist-evoked calcium signal; in the data active means activity change below about -50%; inconclusive means about -30% to -50%; inactive means above about -30%;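 note: stimulus is agonist 54-4 at its EC80 concentration; % is set by controls: 0 for no effect and ±100 for the full control effect; compound concentration not given in the record; the text of the record puts the active cut at -80%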
Target sequence (Q9GZU1 whole entry, looked up): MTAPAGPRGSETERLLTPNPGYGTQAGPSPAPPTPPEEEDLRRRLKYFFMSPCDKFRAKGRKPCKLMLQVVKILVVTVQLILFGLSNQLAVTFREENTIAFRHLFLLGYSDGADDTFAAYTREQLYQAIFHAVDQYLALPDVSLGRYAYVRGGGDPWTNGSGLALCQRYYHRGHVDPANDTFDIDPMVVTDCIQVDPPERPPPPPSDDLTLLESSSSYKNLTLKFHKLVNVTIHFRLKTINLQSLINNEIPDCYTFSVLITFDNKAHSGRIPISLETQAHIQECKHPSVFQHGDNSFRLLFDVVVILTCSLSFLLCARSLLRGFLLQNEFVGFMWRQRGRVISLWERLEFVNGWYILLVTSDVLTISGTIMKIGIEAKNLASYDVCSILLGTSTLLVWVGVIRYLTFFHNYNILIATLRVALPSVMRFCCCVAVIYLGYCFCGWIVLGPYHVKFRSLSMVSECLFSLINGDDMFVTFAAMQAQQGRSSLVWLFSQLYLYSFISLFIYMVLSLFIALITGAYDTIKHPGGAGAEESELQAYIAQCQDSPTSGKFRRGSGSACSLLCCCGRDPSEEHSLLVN
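Calcium fluorescence in TRPML1-DL cells induced overnight with Tet: a 110 s read after compound pin addition, then a 110 s antagonist read after challenge with 54-4 at 4 uM final (EC80).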
CtBP-E1A blk = qHTS Assay for Inhibitors of the CtBP/E1A Interaction. CtBP / adenovirus E1A interaction (AlphaScreen). AlphaScreen GST-E1A/His-CtBP binding, 1536-well; active compounds read low; control for the full effect not named in the record. activity change, % (concentration not given with the values). hit rate 0.49% among 340,000; in the data active means activity change below about -65%; inconclusive means about -30% to -65%; inactive means above about -30%; note: % is set by controls: 0 for no effect and ±100 for the full control effect
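Steps: dispense buffer (Tris pH 8.0, NaCl 300 mM, TCEP 1 mM, BSA, Tween 20); add 5X protein mix (GST-E1A, His-CtBP, 125 nM each); pin 23 nL compound; 2 h at 37 °C, dark; add 5X beads (50 ug/mL); 1 h; read.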
TRPML1 ag = qHTS for Agonists of the Human Mucolipin Transient Receptor Potential 1 (TRPML1); AID 624414, 2012; activation, % (concentration not given with the values); Mucolipin-1 (Homo sapiens), Q9GZU1; TRPML1-expressing cells, Ca2+ dye fluorescence, FDSS; host cell line not named in the record; reference of the full effect not given here; hit rate 0.12% among 410,000; in the data active = activation above about 50%; inconclusive = about 30% to 50%; inactive = below about 30%; note: 0% is about no effect; the text of the record puts the active cut at 80%
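Kinetic FDSS Ca2+ read in Tet-induced TRPML1-DL cells (ABD Ca8 dye plus quencher, 45-90 min RT loading): baseline, then compound, then 110 s agonist window; EC80 agonist 54-4 at 4uM final added afterwards for a 110 s antagonist window.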
* = called active by the depositor; ? = inconclusive; / = not tested or not shown; & = joins results of further samples. The order is random; 0.95% or so of the library scored in one or more.

SMILES	TRPV1 PAM	Six1-Eya2 inh	D2 potentiator	TRPML1 blocker	CtBP-E1A blk	TRPML1 ag
Cc1cc(C)cc(N(CC(=O)NCC2CCCO2)C(=O)CN2C(=O)COc3ccccc32)c1 (stereo not given)	-41	-2	-6	-7	6	2.0
Cn1c(SCC(=O)NCCN2C(=O)CSC2=O)nc2ccccc2c1=O	-6	0	-12	-4	-10	0.8
Cc1ccc(NC(=S)NCC2CCN(C(C)c3ccccc3)C2)cc1 (stereo not given)	2	-3	-16	9	-6	-0.7
COc1ccc(OC)c(NC(=O)COC(=O)CCNc2ccccc2OC)c1	/	-27	-3	3	-28	4.2
Cc1ccc(C)c(C2C(=O)c3ccccc3C2=O)c1	29	4	-10	23	-17	0.6
O=C(COc1cccc(-n2cnnn2)c1)N1CCOCC1	6	-2	-11	16	12	0.2
COCCNC(=O)CCc1nnc(C2(c3ccc(Cl)cc3)CCC2)o1	-3	-2	-5	7	/	0.6
Cc1cccc(N(C)S(=O)(=O)c2ccc3c(c2)C(C)(C)C(=O)N3C)c1	-8	-1	-1	-6	2	0.5
Cc1ccc(S(=O)(=O)Nc2ccc(Nc3nccn4c(-c5ccccc5Oc5ccccc5)cnc34)cc2)cc1	/	-12	0	/	-19	0.1
O=C(NC1CCCN(Cc2ccc(Cl)cc2)C1)c1c(F)cccc1F (stereo not given)	-22	-2	-7	9	1	0.1
Cc1noc(C)c1CSc1ccccc1C(=O)N(C)CC(=O)Nc1cccc(F)c1	-12	-6	-62	6	5	0.5
CCCNC(=S)N1CCC(Cc2ccccc2)CC1	-14	1	-8	-7	-4	1.1
O=C(Nc1ccc2c(c1)CCC2)C1CCCO1 (stereo not given)	-8	0	1	-5	3	0.3
C[C@H](CO)N1C[C@H](C)[C@@H](CN(C)C(=O)Nc2ccc(C(F)(F)F)cc2)Oc2ccc(NC(=O)c3ccncc3)cc2C1=O	/	3	0	6	4	-0.8
CC1CCCCN1S(=O)(=O)c1cccc2nonc12 (stereo not given)	3	3	9	-3	3	-0.8
CC(C)OCCCNC(=O)c1cc(-c2cccs2)nc2ccccc12	16	-5	13	9	1	1.4
CCOC(=O)c1cnc2ccc(OCC)cc2c1N(C)Cc1ccccc1	-11	-6	-1	50	10	1.0
CCOC(=O)N1CCN(C(=O)c2ccc(Cl)nc2)CC1	-10	11	3	-5	7	-0.5
Cc1cccc(N(C)C(=O)c2cc(S(=O)(=O)N3CCCCC3)c[nH]2)c1	-9	-2	-2	-3&5	2	-0.9&-0.6
CC1CCN(CCC(=O)NN)CC1	-1	-2	-7	17	-4	0.0

Profiles, quoted from the list. Screens in order: TRPV1 PAM | Six1-Eya2 inh | D2 potentiator | TRPML1 blocker | CtBP-E1A blk | TRPML1 ag
Cc1cc(C)cc(N(CC(=O)NCC2CCCO2)C(=O)CN2C(=O)COc3ccccc32)c1 (stereo not given) is listed as -41 | -2 | -6 | -7 | 6 | 2.0
CC1CCCCN1S(=O)(=O)c1cccc2nonc12 (stereo not given) is listed as 3 | 3 | 9 | -3 | 3 | -0.8

Next records follow:
SMILES	TRPV1 PAM	Six1-Eya2 inh	D2 potentiator	TRPML1 blocker	CtBP-E1A blk	TRPML1 ag
CCCCN(CC(=O)NC(C)(C)C)C(=O)C(=O)Nc1ccc2c(c1)OCCO2	4	10	-3	-9	19	-0.8
COc1ccc(/C=N/NC(=O)c2nn(-c3ccc(Cl)cc3)c(=O)c3c(N)scc23)cc1	1	-7	15	-10	-20	-0.8
COc1cc(S(=O)(=O)N2CCN(c3ccccc3)CC2)ccc1Cl	3	1	-12	3	0	-0.3
O=C(O)/C=C/c1cccnc1	6	-19	-4	/	2	/
NC(=O)/C=C\c1cn(-c2ccccc2)nc1-c1ccc2c(c1)OCCO2	-4	-4	6	14	-4	1.0
Cc1cc(C)n(-c2ccc(C(=O)OCC(=O)Nc3ccccc3F)cc2)n1	/	-5	-22	12	/	-0.6
Cc1ccc(CN2CC(C(=O)Nc3nc(C)cs3)CC2=O)cc1 (stereo not given)	/	-7	5	-6	0	-0.9
O=C(COc1cccnc1[N+](=O)[O-])N1N=C(c2ccc(Cl)cc2)CC1c1ccco1 (stereo not given)	-10	0	-3	3	0	1.0
COc1ccc(C2C(C)C3(O)CC(C#N)(C(=O)N3)C2(C#N)C#N)cc1 (stereo not given)	-6	-1	-4	10	-3	0.9
O=C(CN1CCN(Cc2ccccc2)CC1)NNC(=O)c1ccc(Cl)cc1	17	2	-2	10	-10	2.0
CCCCn1c(N)c(N(CCOC)C(=O)COC(=O)CSc2cc(C)c3ccccc3n2)c(=O)[nH]c1=O	8	-4	-2	18	4	1.1
Cc1ccc2nc(COC(=O)c3cnccn3)cc(=O)n2c1	/	-13	-2	8	-21	1.4
CCCCn1nnc(NC(=O)CCC)n1	8	3	-8	-12	7	0.6
Cc1cc(=O)n(C)c(=O)n1CC(=O)N1CCCCCC1	10	-2	2	1	2	0.1
O=C(COc1ccccc1Cl)NCc1ccncc1	-2	1	6	2	2	-0.9
Cc1cc(=O)[nH]c(SCCOc2cccc(C(F)(F)F)c2)n1	-2	3	-9	-9	29	0.2
Cc1ccc(NS(=O)(=O)c2ccc(-n3cccn3)cc2)cc1F	13	4	-7	-1	-3	1.1
C=CCn1c(SCc2csc(-c3ccc(C)cc3)n2)nnc1-c1ccccc1OC	13	-5	-12	-9	-2	0.0
COc1ccc(C(=O)NC2CC2)cc1OC1CCN(Cc2ccc(F)c(F)c2)CC1	-12	0	-28	-4	-1	-0.5
O=C(CCN1C(=O)/C(=C/c2ccccc2Cl)SC1=S)N1CCCC1	6	18	-5	11	0	0.9
Cc1ccc(N2CCN(C(=O)NC3CCCCC3)CC2)c(C)c1	1	0	-13	3	7	1.1
COc1ccccc1N1C(=O)c2ccc(C(=O)Nc3ccccc3O)cc2C1=O	7	-9	15	/	6	/
Cc1cnn(-c2cc(Oc3ccccc3)ncn2)c1	-13	6	-10	-22	6	-0.3
O=[N+]([O-])c1ccccc1SNc1ccc(Br)cn1	23	0	-4	-14	0	1.1
O=C(OCC(=O)N1CCc2ccccc21)c1ccc(Br)o1	/	-4	-5	6	/	-0.5
Cc1ccc(NC(=O)CN2CCN(CCN=CC3=C(O)CC(C)(C)CC3=O)CC2)cc1	6	1	-17	15	-11	1.1
CC(=O)Nc1cccc(NC(=O)CSc2nnc(Cc3cccn3C)n2-c2ccc(F)cc2)c1	-11	-12	-19	14	-6	-0.2
CCC(C)(C)NC(=O)C(c1ccc(OC)cc1)N(CCOC)C(=O)CCC(=O)Nc1nccs1 (stereo not given)	2	-5	1	4	-6	-0.2
COc1ccc(N2CCN(C(=O)COC(=O)[C@@H](NC(=O)c3ccccc3Cl)C(C)C)CC2)cc1	/	-5	0	3	0	-0.1
CSCCC(NC(=O)c1ccccc1)C(=O)N1CCN(Cc2ccc(Cl)cc2)CC1 (stereo not given)	11	-12	13	8	-3	0.8
O=C(NNC(=S)Nc1ccc(Cl)cc1)c1cccs1	-10	0	-25	3	/	0.0
NC(=O)CCN1CCN(Cc2cn[nH]c2-c2cccc3ccccc23)CC1	3	-11	-5	22	7	-0.5
O=C(COC(=O)CC1CCCC1)Nc1cc2c(cc1Cl)C(=O)c1ccccc1C2=O	-10	-20	2	-1	-1	-0.7
CN1CCN(C(=O)CCN2C(=O)/C(=C\c3ccc(Cl)cc3Cl)SC2=S)CC1	1	?	-14	4	?	0.9
Cc1nn(-c2ccncc2)c2c1C(=O)CC(C)(C)C2Br (stereo not given)	/	3	9	17	4	-0.5
Cc1ccc2[nH]c3c(=O)n(CCN4CCNCC4)cnc3c2c1	-14	2	-4	17	3	0.0
O=C(CN1C(=O)S/C(=C\c2ccccc2Cl)C1=O)NC1C=CS(=O)(=O)C1 (stereo not given)	15	2	-8	8	-2	-0.3
CCN(CC)S(=O)(=O)c1cccc(NC(=O)c2ccc(S(=O)(=O)N3CCCC3)cc2)c1	/	4	-4	8	20	1.0
CC(O)(c1cccnc1)c1nc(/C=C/c2ccccc2)cs1 (stereo not given)	/	-3	-7	/	1	-0.5
CCn1cc(C2=NCCO2)c2ccccc21	0	0	-4	-2	2	-0.6

A portion from the list above:
SMILES	TRPV1 PAM	Six1-Eya2 inh	D2 potentiator	TRPML1 blocker	CtBP-E1A blk	TRPML1 ag
CSCCC(NC(=O)c1ccccc1)C(=O)N1CCN(Cc2ccc(Cl)cc2)CC1 (stereo not given)	11	-12	13	8	-3	0.8
O=C(NNC(=S)Nc1ccc(Cl)cc1)c1cccs1	-10	0	-25	3	/	0.0
NC(=O)CCN1CCN(Cc2cn[nH]c2-c2cccc3ccccc23)CC1	3	-11	-5	22	7	-0.5
O=C(COC(=O)CC1CCCC1)Nc1cc2c(cc1Cl)C(=O)c1ccccc1C2=O	-10	-20	2	-1	-1	-0.7

Next section.
SMILES	TRPV1 PAM	Six1-Eya2 inh	D2 potentiator	TRPML1 blocker	CtBP-E1A blk	TRPML1 ag
COc1ccc(C(C(=O)Nc2ccc(C(C)C)cc2)N(C)C(=O)CNC(C)=O)cc1 (stereo not given)	-13	2	-8	-8	0	0.8
CCCC[C@@H]1CN=C(N)N1CCc1cc(C(F)(F)F)cc(C(F)(F)F)c1	-22	17	-10	3	/	1.0
COc1ccc(C=O)cc1OC(=O)N1CCOCC1	3	0	-2	29	6	0.7
CC(C)(C)N1CC2([N+](=O)[O-])CN(C(C)(C)C)CC([N+](=O)[O-])(C1)C2	-1	0	-7	-23	14	28
CCN(CC)S(=O)(=O)c1ccc(N2CCOCC2)c(NS(=O)(=O)c2cc(C(C)(C)C)ccc2C)c1	7	-13	-12	-10	-9	?
Cc1cc(-c2cc(C(=O)NC3CCCC3)on2)nc(NCC2CC2)n1	?	4	-1	-17	6	-1.0
C/C(=C\C=C\c1ccccc1)C(=O)c1c(C)cc(C)[nH]c1=O	-35	0	-4	-11	-2	1.5
COc1ccccc1NC(=S)NN=C(C)c1ccccn1	/	-72*	11	24	-81*	-0.2
CC(=O)c1cnc2c(C(=O)O)cnn2c1C	-1	-2	-1	24	9	-0.4
CCn1c(Cc2ccccc2)nnc1SCC(=O)Nc1ccc2c(c1)OCCO2	4	-4	-7	11	-3	0.8
COC(=O)c1cc(S(=O)(=O)NCC(C)c2ccccc2)c[nH]1 (stereo not given)	/	20	-5	4	8	0.9
Cc1nc2c(-c3ccc(F)cc3)c(C)nn2c(C)c1CCC(=O)N1CCN(c2ccccn2)CC1	/	1	-4	5	9	0.1
O=C(Nc1ccn(-c2ccccc2)n1)c1ccc(S(=O)(=O)N2CCCCCC2)cc1	-21	-1	-4	8	9	-0.4
Cc1nc(N2CCN(c3ccccc3F)CC2)[nH]c(=O)c1C	-8	-1	3	6	/	0.9
CN1CCN(CC(=O)Nc2cc(S(=O)(=O)N3CCOCC3)ccc2Cl)CC1	5	32	-8	-6	0	-0.2
CCOc1ccc(N(CC(=O)N/N=C/c2ccccn2)S(=O)(=O)c2ccc(Cl)cc2)cc1	2	-3	-7	30	-5	2.1
Cc1ccc(NC(=O)CSC(C)C(=O)NCCc2ccccn2)cc1 (stereo not given)	4	25	0	-1	/	0.4

Source: PubChem BioAssay
